VACV mCherry inh: vaccinia inhibition (mCherry reporter); Vaccinia virus mCherry reporter infection, fluorescence; about a quarter of the inactives have no number; Potency, µM (series often up to 36.5 µM), without a hit: at the highest dose activity change, negative = inhibition, actives largely listed as inhibitors; 0.63% of 310,000 active; AID 720579; active = well fitted inhibition curve with a large enough effect; inconclusive = small, poorly fitted or top-dose-only effect; inactive = no such curve, though single readings can be large or run the other way; tested in A549 cells; also: nearly all actives have a fitted effect of over 35% in size; inactives centre near -10
Vaccinia Venus: vaccinia inhibition (Venus reporter) | Vaccinia virus Venus reporter expression, fluorescence | Potency, µM (highest dose often 36.5 µM), for the others: top-dose activity change, negative = inhibition, actives largely listed as inhibitors | 0.46% of 330,000 active | AID 720580; active means well fitted inhibition curve with a large enough effect; inconclusive means small, poorly fitted or top-dose-only effect; inactive means no such curve, though single readings can be large or run the other way; tested in A549 cells; also: nearly all actives have a fitted effect of over 30% in size; inactives centre near -10
* marks the source's active call; other numbers are inactive results; & = joins results of further samples; [ ] = another dose, or the depositor's remark. % is scaled to controls: 0 for no effect and ±100 for the full control effect; potency is read from the fitted curve at half-maximal effect. Hits appear at their usual frequency (roughly 0.87% active in at least one column).

`COc1ccc([C@H]2/C=C\CN(S(=O)(=O)c3ccc4ccccc4c3)[C@@H](C)C(=O)N2Cc2ccc(F)cc2)cc1` gave VACV mCherry inh -4% and Vaccinia Venus -14%.
`CC(=C/c1ccc(C(C)C)cc1)/C=N/NC(=O)Cn1nnnc1N` gave VACV mCherry inh -28% and Vaccinia Venus -21%.
Screening COc1ccc(S(=O)(=O)NCc2ccc(C(=O)N3CCc4ccccc4C3)cc2)cc1 returned VACV mCherry inh inactive and Vaccinia Venus -13%.
CC1(Oc2ccccc2-c2ccn[nH]2)CCN(Cc2ccc(OC(F)(F)F)cc2)C1 (stereo not given) was read as VACV mCherry inh inactive and Vaccinia Venus -13%.
For O=C(Cc1ccccc1)Nc1ccc(NC(=O)c2ccco2)cc1Cl the results were VACV mCherry inh -4% and Vaccinia Venus -8%.
O=C(/C=C/c1ccccc1)N1c2ccccc2Sc2ccc(C(F)(F)F)cc21 was read as VACV mCherry inh -20% and Vaccinia Venus -14%.
Screening COC(=O)c1ccccc1NC(=O)C/C(C)=N/NC(=O)CC#N returned VACV mCherry inh -1% and Vaccinia Venus -9%.
Screening O=C(O)c1ccc(Nc2nc3ccccc3nc2NS(=O)(=O)c2cccs2)cc1 returned VACV mCherry inh inactive[7.34 µM] and Vaccinia Venus 0%[7.34 µM].
COc1cc(C(O)P(=O)(OCC(C)C)OCC(C)C)cc(OC)c1OC (stereo not given) was read as VACV mCherry inh -10% and Vaccinia Venus -9%.
COc1cc(C2=NOC(C(=O)Nc3cccnc3)C2)cc(OC)c1OC (stereo not given) was read as VACV mCherry inh inactive and Vaccinia Venus 0%.
Screening O=C(Cn1ccc(=O)[nH]c1=O)NCCO returned VACV mCherry inh -4% and Vaccinia Venus 0%.
Screening Cc1ccc(CNC(=O)c2cc(S(=O)(=O)N3CCCC(C)C3)cn2C)cc1 (stereo not given) returned VACV mCherry inh -25% and Vaccinia Venus -20%.
Screening CN(C)CCNC(=O)c1cccc(-c2cnc3c(NC=O)cc(-c4ccc(F)cc4)cn23)c1 returned VACV mCherry inh 1% and Vaccinia Venus -23%.
For CCc1ccc(C2N3CC4(C)CN2CC(c2ccccc2)(C3)C4=O)cc1 (stereo not given) the results were VACV mCherry inh -9% and Vaccinia Venus -5%.
For COc1ccc2[nH]c3nc(SCC(=O)Nc4ccc5c(c4)OCO5)nnc3c2c1 the results were VACV mCherry inh -1% and Vaccinia Venus -18%.
CCOC(=O)C1=C(C)N=C2SC(CC)C(=O)N2C1c1cccc(F)c1 (stereo not given) was read as Vaccinia Venus inconclusive.
For O=C(NCc1cccnc1)C1CCCN(S(=O)(=O)c2cccc3nsnc23)C1 (stereo not given) the results were VACV mCherry inh inactive and Vaccinia Venus -20%.
For COCCCNC(=S)N1CCC(C(=O)c2ccc3c(c2)OCCO3)CC1 the results were VACV mCherry inh inactive and Vaccinia Venus -10%.
`O=C(COC(=O)C1CCN(S(=O)(=O)c2cccs2)CC1)Nc1ccc(F)cc1F` gave VACV mCherry inh inactive and Vaccinia Venus -10%.
For CN(CC(=O)Nc1ccc(N2CCOCC2)cc1)C(=O)CCNC(=O)c1ccc(Br)cc1 the results were VACV mCherry inh inactive and Vaccinia Venus -20%.

Random excerpt: 2 compounds from above
Screening O=C(Cn1ccc(=O)[nH]c1=O)NCCO returned VACV mCherry inh -4% and Vaccinia Venus 0%.
O=C(/C=C/c1ccccc1)N1c2ccccc2Sc2ccc(C(F)(F)F)cc21 was read as VACV mCherry inh -20% and Vaccinia Venus -14%.

More compounds.
`Cc1cccc(OCC(=O)N(Cc2cccs2)c2ccc(Cl)cc2)c1C` gave VACV mCherry inh -3% and Vaccinia Venus 6%.
COc1ccc(-c2nc(CNC(=O)Nc3ccccc3)c(C)o2)c(OC)c1 was read as VACV mCherry inh -21% and Vaccinia Venus -5%.
`NC(=O)c1nn(-c2ccc(Cl)cc2Cl)c(=O)cc1O` gave VACV mCherry inh 3% and Vaccinia Venus 1%.
`S=C(Nc1ccccn1)Nc1ccccc1Cl` gave VACV mCherry inh inactive and Vaccinia Venus -8%.
Screening CC(=O)Nc1ccc(-c2ccnc3c2CC(C(=O)Nc2ccc4c(c2)OCO4)O3)cc1 (stereo not given) returned VACV mCherry inh inactive and Vaccinia Venus -7%.
For COc1ccccc1-n1c(-c2cn(C)nc2C)n[nH]c1=S the results were VACV mCherry inh -8% and Vaccinia Venus -1%.
CCc1ccc(NC(=O)CNC(=O)c2cn(-c3ccccc3OC)c(=O)c3ccccc23)cc1 was read as VACV mCherry inh inconclusive and Vaccinia Venus -30%.
For Cc1nn(C)c2ncc(C(N)=O)c(Oc3ccc(Cl)cc3)c12 the results were VACV mCherry inh -4% and Vaccinia Venus -23%.
`O=C(C1CC1)N1CCN(c2ccc(F)cc2)CC1` gave VACV mCherry inh inactive and Vaccinia Venus -8%.
`CC[C@H](C)[C@H](NC(N)=O)C(=O)Nc1ccc(C)cc1` gave VACV mCherry inh -15% and Vaccinia Venus -11%.
Screening CC(=O)Nc1ccccc1OCC(=O)NCCC1=CCCCC1 returned VACV mCherry inh -2% and Vaccinia Venus -2%.
For CCOC(=O)C1(CCCc2ccccc2)CCN(C(=O)c2cnc(C)cn2)CC1 the results were VACV mCherry inh inactive and Vaccinia Venus -18%.
O=C(N/N=C1\CCCc2ccccc21)c1cccc([N+](=O)[O-])c1 was read as VACV mCherry inh -19% and Vaccinia Venus -11%.
COC(=O)/C(C#N)=C1/C=Cc2ccccc2N1 was read as VACV mCherry inh -13% and Vaccinia Venus -13%.
O=C(NNc1c(Cl)cccc1Cl)c1sccc1Cl was read as VACV mCherry inh -7% and Vaccinia Venus -20%.
Cc1ccc(S(=O)(=O)N(CC(=O)NCc2ccccc2Cl)C(=O)N2CCN(C)CC2)cc1 was read as VACV mCherry inh -14% and Vaccinia Venus -14%.
O=C(/C=C/c1ccc(O)c(O)c1)c1ccc(S(=O)(=O)N2CCCCCC2)cc1 was read as VACV mCherry inh -19% and Vaccinia Venus -12%.
For O=C(Cn1c(=O)n(-c2ccc(F)cc2)c(=O)c2sccc21)Nc1cccc(C(F)(F)F)c1 the results were VACV mCherry inh -7%[7.34 µM] and Vaccinia Venus -9%[7.34 µM].
For Cc1ccc(C)c(N2CCN(CCCNC(=O)Cn3c(-c4cccs4)cc4ccccc43)CC2)c1 the results were VACV mCherry inh -30% and Vaccinia Venus -30%.
For CN(Cc1ccccc1)S(=O)(=O)CCNC(=O)c1ccc2c(c1)OCO2 the results were VACV mCherry inh inactive and Vaccinia Venus -12%.
Screening Cc1ccc(S(=O)(=O)NCc2nnc(SCC(=O)Nc3cccc(C)c3C)n2C)cc1 returned VACV mCherry inh inactive and Vaccinia Venus -9%.
Screening Cc1cc(/C=C(\C#N)C(=O)Nc2ccccc2F)c(C)[nH]1 returned VACV mCherry inh inactive and Vaccinia Venus -9%.
`COCCSc1nnc(NC(=O)C2CC(=O)N(c3ccc(OC)cc3)C2)s1` (stereo not given) gave VACV mCherry inh inactive and Vaccinia Venus -6%.
Screening CC1CCc2c(sc3ncnc(NS(=O)(=O)c4cccs4)c23)C1 (stereo not given) returned VACV mCherry inh -12% and Vaccinia Venus -6%.
`CCCc1nc(SCC(=O)N2CCOCC2)c2c(C)c(C)sc2n1` gave VACV mCherry inh inactive and Vaccinia Venus -9%.
`Cc1ccc(-c2nn[nH]n2)cc1Cl` gave VACV mCherry inh -8% and Vaccinia Venus -11%.
Screening CCN1CCC(O)(/C=C/c2ccc(C)cc2)C(C(=O)/C=C/c2ccc(C)cc2)C1 (stereo not given) returned VACV mCherry inh inconclusive and Vaccinia Venus 18µM*.
For OC(COCC1COc2ccccc2O1)CN1CCc2ccccc2C1 (stereo not given) the results were VACV mCherry inh -19% and Vaccinia Venus -2%.
O=C(OCCN1C(=O)c2ccccc2C1=O)C1CC(O)CN1S(=O)(=O)c1ccc(Cl)cc1 (stereo not given) was read as VACV mCherry inh inactive and Vaccinia Venus -16%.
For O=C(O)CCCCCN1C(=O)/C(=C\c2ccc(-c3ccc(Cl)cc3)o2)SC1=S the results were VACV mCherry inh -27% and Vaccinia Venus 2%.
`COc1ccc(C2=NOC(C)(c3nnc(Cc4ccccc4)o3)C2)cc1` (stereo not given) gave VACV mCherry inh inactive and Vaccinia Venus -15%.
`CC(C)Nc1nc(NCCO)nc2ccccc12` gave VACV mCherry inh 19% and Vaccinia Venus 10%.
`CC1CCN(C(=S)NC(=O)c2ccc(F)cc2)CC1` gave VACV mCherry inh -1% and Vaccinia Venus -10%.
Screening COc1cccc(C(=O)OC2CCCN(C)C2)c1 (stereo not given) returned Vaccinia Venus -13%.
Screening CN(C)C=Nc1ccc([N+](=O)[O-])c2ccccc12 returned VACV mCherry inh inactive and Vaccinia Venus -8%.
COC(=O)c1cccc(NC(=O)CN2CCOCC2)c1 was read as VACV mCherry inh -11% and Vaccinia Venus -5%.
For CC[C@@H]1CC2=C(C(=O)OC(C)(C)O2)[C@H](c2ccc(Cl)cc2)O1 the results were VACV mCherry inh 0% and Vaccinia Venus 0%.
For CCOc1ccc(-c2nnc(NC(=O)C3CCCC3)o2)cc1 the results were VACV mCherry inh 12% and Vaccinia Venus -7%.
CCOC(=O)Nc1ccc2c(c1)ncn2C1CCCCC1 was read as VACV mCherry inh inactive and Vaccinia Venus -14%.
`C[C@H]1CN([C@@H](C)CO)C(=O)c2cccc(NC(=O)Nc3ccc(C(F)(F)F)cc3)c2O[C@@H]1CN(C)Cc1ccc(Cl)c(Cl)c1` gave VACV mCherry inh inconclusive and Vaccinia Venus inconclusive.

Overlap with the part before: 4 compounds, followed by the next part.
For CC[C@@H]1CC2=C(C(=O)OC(C)(C)O2)[C@H](c2ccc(Cl)cc2)O1 the results were VACV mCherry inh 0% and Vaccinia Venus 0%.
For CCOc1ccc(-c2nnc(NC(=O)C3CCCC3)o2)cc1 the results were VACV mCherry inh 12% and Vaccinia Venus -7%.
CCOC(=O)Nc1ccc2c(c1)ncn2C1CCCCC1 was read as VACV mCherry inh inactive and Vaccinia Venus -14%.
`C[C@H]1CN([C@@H](C)CO)C(=O)c2cccc(NC(=O)Nc3ccc(C(F)(F)F)cc3)c2O[C@@H]1CN(C)Cc1ccc(Cl)c(Cl)c1` gave VACV mCherry inh inconclusive and Vaccinia Venus inconclusive.
`CC(C)NC(=O)CC(=O)Nc1ccc2nc3n(c(=O)c2c1)CCCCC3` gave VACV mCherry inh 0% and Vaccinia Venus -7%.
`Cc1nccc2c1[nH]c1ccccc12` gave VACV mCherry inh -11%&-13% and Vaccinia Venus -18%&-19%&5%&3%.
COc1ccccc1Nc1nc(N)nc(CSC(=S)N2CCOCC2)n1 was read as VACV mCherry inh -27% and Vaccinia Venus -12%.
Screening CC(=O)N1CCc2cc(Br)cc(S(=O)(=O)CCC(=O)N3CCN(c4ccc(F)cc4)CC3)c21 returned VACV mCherry inh -7% and Vaccinia Venus -9%.
COc1ccc(C(=O)NC(=S)NCc2ccco2)cc1 was read as VACV mCherry inh -4% and Vaccinia Venus 8%.
Screening Cc1nn2c(=O)cc(COC(=O)c3cccs3)nc2s1 returned VACV mCherry inh -11% and Vaccinia Venus -6%.
O=C(OCCN1CCN(c2ncc(C(F)(F)F)cc2Cl)CC1)c1ccc(F)cc1 was read as Vaccinia Venus -16%.
`Cc1noc(C)c1S(=O)(=O)N1CCC(Cc2ccccc2)CC1` gave VACV mCherry inh -12% and Vaccinia Venus -6%.
Screening COc1ccc2c(C)c(C(=O)NCC(C)O)oc2c1OC (stereo not given) returned Vaccinia Venus -21%.
COc1ccc(/C=N\NC(=O)CCN2CCN(c3ccccc3)CC2)cc1OC was read as VACV mCherry inh 6% and Vaccinia Venus 20%.
NC(=O)c1cc([N+](=O)[O-])cc([N+](=O)[O-])c1 was read as VACV mCherry inh inactive and Vaccinia Venus -6%&-8%.
For C=CCn1c(SCC(=O)NC2CCS(=O)(=O)C2)nnc1-c1ccncc1 (stereo not given) the results were VACV mCherry inh -14% and Vaccinia Venus 1%.
COc1cccc(NC(=O)CN(c2cccc(OC)c2)S(C)(=O)=O)c1 was read as VACV mCherry inh inactive and Vaccinia Venus -8%.
Screening O=C(NCc1ccccc1Cl)NC(=O)c1csc([N+](=O)[O-])c1 returned VACV mCherry inh -6% and Vaccinia Venus -7%.
For CCCC(C(=O)NCC1CCCO1)N(Cc1ccco1)C(=O)CNS(=O)(=O)c1ccc(F)cc1 (stereo not given) the results were VACV mCherry inh -20% and Vaccinia Venus -7%.
Screening COc1ccc(C(=O)c2ccccc2)c(OCC(=O)NC2CC2)c1 returned VACV mCherry inh -6% and Vaccinia Venus inconclusive.
`COc1ccc(C2C(=O)N(CCc3ccccc3)CC(=O)N2C2CCCC2)cc1` (stereo not given) gave VACV mCherry inh -13% and Vaccinia Venus -9%.
For Nn1c(SCC(=O)NC2CCS(=O)(=O)C2)nnc1-c1ccco1 (stereo not given) the results were VACV mCherry inh -13% and Vaccinia Venus 0%.
`CC(C)Oc1ccccc1C1Nc2ccccc2C(=O)N1c1ccc2c(c1)OCCO2` (stereo not given) gave Vaccinia Venus -21%.

Compound activity from PubChem.
